VACV Venus inh: inhibitors of vaccinia virus (Venus reporter) | Vaccinia virus Venus reporter expression, fluorescence | Potency, µM (series often up to 36.5 µM), inactives show at the top dose activity change, negative = inhibition, most hits filed as inhibitors | hit rate 0.46% among 330,000 | AID 720580; active means well fitted inhibition curve with a large enough effect; inconclusive means small, poorly fitted or top-dose-only effect; inactive means no such curve, though single readings can be large or run the other way; tested in A549 cells; also: nearly all actives have a fitted effect of over 30% in size; inactives centre near -10
VACV mCherry inh: vaccinia inhibition (mCherry reporter); Vaccinia virus mCherry reporter infection, fluorescence; about a quarter of the inactives have no number; Potency, µM (doses to about 36.5 µM), inactives show at the top dose activity change, negative = inhibition, usual class: inhibitors; hit rate 0.63% among 310,000; AID 720579; active = well fitted inhibition curve with a large enough effect; inconclusive = small, poorly fitted or top-dose-only effect; inactive = no such curve, though single readings can be large or run the other way; tested in A549 cells; also: nearly all actives have a fitted effect of over 35% in size; inactives centre near -10
* = called active by the depositor; i = inactive; ? = inconclusive; / = not tested or not shown; & = joins results of further samples; [ ] = remark or other dose. % is scaled to controls: 0 for no effect and ±100 for the full control effect; potency is read from the fitted curve at half-maximal effect.

no.	structure	VACV Venus inh	VACV mCherry inh
1	c1ccc2c(c1)Sc1ccccc1-n1cnnc1-2	-17.5%	-10.3%
2	COC[C@H]1CCCN1c1ccc2c(c1)O[C@@H](COCc1ccccc1)CN([C@@H](C)c1ccccc1)S2(=O)=O	2.9%	i
3	O=c1cnnc(N/N=C/c2ccccn2)[nH]1	-19.8%	2.24µM*
4	CCn1c(CNC(=O)c2ccc(OC)cc2)nnc1SCC(=O)Nc1ccccc1	-0.3%	-1.0%
5	COc1ccccc1CNc1ncnc2ccc(-c3ccc(N(C)C)cc3)cc12	0.0%	i
6	O=C(O)Cn1cnc2c(OCc3ccccc3)ncnc21	-6.4%	-13.9%
7	CC1CCCC(C)N1C(=O)CN1C(=O)NC2(CCOc3ccccc32)C1=O (stereo not drawn)	-7.8%	-8.8%
8	COc1ccccc1N1CCN(Cc2cc(C)c(C)cc2O)CC1	-3.2%	i
9	Cc1c(C)c2ccc(OCC(=O)N3CCC(C(=O)O)(c4ccccc4)CC3)cc2oc1=O	3.9%	-2.7%
10	Cc1sc(NC(=O)COc2ccc(C(C)(C)C)cc2)c(C(=O)OC(C)C)c1C	-10.8%	-14.6%
11	Cc1ccc(C(=O)COC(=O)CN2C(=O)C3C4C=CC(C4)C3C2=O)cc1[N+](=O)[O-] (stereo not drawn)	-13.2%	-2.0%
12	COc1cccc(/C=C/c2nc(C#N)c(NCCc3ccccc3)o2)c1	-8.0%	-11.7%
13	CCOC(=O)c1c(C)[nH]c(C)c1S(=O)(=O)NCC(=O)NCc1ccc(C)cc1	-8.6%	-18.4%
14	C(#Cc1ccc2c(c1)COc1c3ccccc3nn1-2)c1ccccc1	-20.1%	-20.3%
15	O=C(CN1CCN(c2ccc([N+](=O)[O-])cc2)CC1)c1ccccc1	-9.8%	-4.0%
16	Cc1ccsc1/C=N/n1c(C2CCCCC2)n[nH]c1=S	-12.4%	i
17	O=C(c1ccco1)N1c2ccccc2Sc2ccccc21	-16.2%	-19.1%
18	COc1ccc(S(=O)(=O)N(C)CC(=O)Nc2ccccc2SC)cc1	-15.0%	-16.4%
19	COCC1CCCN(C(=O)c2cc(COc3cncc(Cl)c3)on2)C1 (stereo not drawn)	-4.5%	-6.5%
20	CC(C)OC(=O)Cc1ccccc1	-12.5%	-24.1%
21	COc1ccc(CNC(=O)COC(=O)C2=Cc3ccccc3OC2)cc1	-6.3%	-4.8%
22	COc1ccc(NC(=O)c2ccco2)cc1NC(=O)COc1ccccc1[N+](=O)[O-]	-6.7%	-0.4%
23	Cc1cc(C(=O)Nc2ccccc2C)c2ccccc2n1	-10.0%	i
24	C/C(=N\Nc1ccc(S(=O)(=O)Nc2ccc(Cl)cc2)cc1[N+](=O)[O-])c1ccc(N2CCOCC2)cc1	-20.2%	i
25	O=C(CBr)c1ccc([N+](=O)[O-])c(CS(=O)(=O)c2ccc(Cl)cc2)c1	-19.4%	-11.9%
26	Cc1nc(-c2ccccc2)sc1C1(C)CC(c2ccc(OC(F)(F)F)cc2)=NO1 (stereo not drawn)	-1.4%	17.2%
27	O=C1CCN(CCc2ccccc2)CCN1[C@H](CSc1ccccc1)c1ccccc1	5.1%&-24.4%	-4.8%&-10.1%
28	O=C(CCCN1C(=O)c2cccnc2Oc2ccc(Cl)cc21)NCc1ccccc1F	-6.4%	-12.9%
29	Nc1nnn(CC(=O)N/N=C/c2cccc(Cl)c2)n1	-2.9%	-6.9%
30	O=[N+]([O-])c1cccnc1NCCNc1ncc(C(F)(F)F)cc1Cl	?	/
31	O=C(Nc1cccc2cccnc12)c1ccc2sc([C@H]3C[C@H](O)[C@@H](CO)O3)nc2c1	-5.1%	-12.0%
32	O=C(NC(Cc1c[nH]c2ccccc12)C(=O)O)OCC1c2ccccc2-c2ccccc21 (stereo not drawn)	11.9%	4.0%
33	CN(C)c1ccc(N=Cc2ccnc3ccccc23)cc1	15.2%	-14.4%
34	Cn1c(NC(=O)/C=C\c2ccccc2)cc(=O)n(C)c1=O	-1.0%	-6.0%
35	CCCCc1nnc(NC(=O)c2ccc(N3CCCC3=O)cc2)s1	-11.3%	i
36	Cc1noc(C)c1S(=O)(=O)Nc1ccc(C(=O)NC2CCCCC2)cc1	1.5%	-0.9%
37	CC(=O)N1CCOc2cc(S(=O)(=O)NCc3ccc(C)cc3)c(Cl)cc21	-7.6%	-15.7%
38	COc1ccc(C2=Nc3ccccc3C2(O)CCN2C(=O)c3ccccc3C2=O)cc1 (stereo not drawn)	-2.4%	-21.3%
39	CCOCc1nnc(NC(=O)c2ccc(OC)cc2)s1	-2.9%	-4.8%
40	Cc1ccc(N2C(=O)c3cccc4cccc(c34)C2=O)cc1	-7.1%	-0.1%
41	O=C(CN1CCN(S(=O)(=O)c2ccccc2)CC1)Nc1ccccc1C(=O)c1ccccc1	?	?
42	O=C(CN(Cc1ccc(Cl)cc1)C(=O)CNS(=O)(=O)c1ccccc1)NCC1CCCO1 (stereo not drawn)	-14.2%	-13.9%
43	CCN(c1ccccc1)S(=O)(=O)c1ccc(C(=O)Nc2ccccn2)cc1	-16.5%	-15.2%
44	COc1ccc(C(=O)NCC(=O)NCC(=O)OCC(=O)c2ccc(C)cc2)cc1	-8.8%	-24.5%
45	O=C1Nc2ccccc2C1=Nc1ccccc1-c1ccccc1	-21.1%	?
46	Cc1cccc(NC(=O)CCN2CCCCC2)c1	0.1%	-10.5%
47	CC(Cc1ccccc1Sc1ccccc1)N(C)C (stereo not drawn)	-16.6%	-11.2%
48	CC1CCCCC1NC(=O)CCC(=O)N1CCOc2ccc(Cl)cc21 (stereo not drawn)	-12.0%	?
49	CCOc1ccc(Cn2c(CNS(=O)(=O)c3ccc(CC)cc3)nc3cccnc32)cc1	-14.8%	-11.0%
50	COc1ccc(C(=O)c2c3ccc(OC)cc3[n+]([O-])n2CCCC(N)=O)cc1	-9.8%	i
51	CN1C(=O)[C@H]2[C@@H](c3ccc(C(F)(F)F)cc3)N[C@]3(CCCN(Cc4ccco4)C3=O)[C@H]2C1=O	-20.2%	i
52	N#C/C(=C\c1ccc(Sc2ccccc2)o1)c1nc2ccccc2[nH]1	-23.5%	-8.5%
53	c1ccc2sc(NN=C3CCCCCC3)nc2c1	-9.6%	-16.0%
54	COc1ccccc1NC(=O)Cn1nc(-c2ccc(Cl)cc2)c2ccccc2c1=O	-7.5%	-22.0%
55	Cc1nc(SCCOc2ccccc2F)[nH]c(=O)c1Cc1ccccc1	-0.8%&-5.7%	-6.7%
56	Cc1cccc(OCC(=O)Nc2ccccc2-c2ccccc2)c1	-5.8%	-11.4%
57	O=C(COC(=O)CCCSc1nc2ccccc2[nH]1)Nc1cccc(F)c1	-6.2%	-15.8%
58	O=C1NN=C(c2ccccc2)CC1c1c[nH]c2ccccc12 (stereo not drawn)	-9.3%	-11.0%
59	O=C(Nc1ccc(S(=O)(=O)Nc2ccnn2-c2ccccc2)cc1)C(F)(F)F	-12.2%	-11.1%
60	Cc1cc(C)cc(NC(=S)N2CCC(NC(=O)C3CC3)CC2)c1	-14.1%	-9.5%

Compound profiles, as listed above.
CCN(c1ccccc1)S(=O)(=O)c1ccc(C(=O)Nc2ccccn2)cc1 in the list: VACV Venus inh = -16.5%; VACV mCherry inh = -15.2%
CC(Cc1ccccc1Sc1ccccc1)N(C)C (stereo not drawn) in the list: VACV Venus inh = -16.6%; VACV mCherry inh = -11.2%

Going on with the list:
no.	structure	VACV Venus inh	VACV mCherry inh
61	COc1ccc(-c2nc(CN(CC3CCC(=O)N3)C(C)C)c(C)o2)c(C)c1C (stereo not drawn)	-5.3%	-6.3%
62	COc1cc(/C=C/C(C)=O)cc(OC)c1OC	-12.5%	i
63	COc1cccc(NC(=O)CN(C)C(C)C(=O)NC(C)c2ccc(Cl)cc2Cl)c1 (stereo not drawn)	-19.8%	-7.7%
64	COc1ccc(OC)c(C2C/C(=N/O)C(C)C(c3cc(OC)ccc3OC)N2)c1 (stereo not drawn)	-16.5%	-13.8%
65	O=C(C1CCCCC1)N1CCC2CC1c1cc(-c3ccc4c(c3)OCO4)ccc12 (stereo not drawn)	-6.2%	i
66	Cc1onc(C(=O)NN)c1-c1csc(COc2ccc(Cl)cc2)n1	-7.0%	i
67	Cc1cc(Nc2ccccc2)nc(-c2ccccc2O)n1	?	/
68	Cc1cnc(C)c(-c2ccc(F)c3c2OC(CNC(=O)/C=C/c2cccs2)C3)n1 (stereo not drawn)	-12.3%	-5.9%
69	O=C(Cc1ccc(Br)cc1)Nc1ccccc1Cl	-7.0%	-9.7%
70	O=C1C(=O)N(CC(=O)N2CCCC2)c2ccccc21	-2.6%	i
71	Cn1nccc1-c1coc2c(C(=O)N3CCOCC3)cccc12	5.9%	24.7%
72	CCOC(=O)N1CCN(C(=O)c2ccc(S(=O)(=O)c3ccc(C)cc3)c(NC(C)=O)c2)CC1	-6.9%	-9.0%[1.46 µM]
73	COc1cc(S(=O)(=O)NCCN2CCOCC2)c(OC)cc1Cl	-13.2%	-18.2%
74	Cc1ccc(/C=C2\C(=O)ON=C2c2ccccc2)o1	4.5%	-4.1%
75	COc1cc(CCC(=O)O)on1	-3.8%	i
76	O=C(Nc1nc2c(cc3c4c(cccc42)CC3)s1)c1ccccc1Cl	-12.2%	-8.9%
77	COCCN(Cc1cn[nH]c1-c1ccc2cc(OC)ccc2c1)C(C)C	-13.8%	i
78	Cc1ccc(C)c(NC(=O)CN(C)C(=O)c2ccc(COc3ccccc3)cc2)c1	-20.3%	?
79	Cc1cccc(N=C2CSC(=O)N2)c1	-2.1%	-14.5%
80	CCNC(=O)C1(C)CCCN(C(=O)c2cc(-c3ccccc3)cs2)C1 (stereo not drawn)	-4.8%	i
81	O=C(Oc1cccc(Nc2ncnc3ccccc23)c1)c1ccccc1Cl	?	?
82	COc1ccc(/C(O)=C2/C(=O)C(=O)N(CC3CCCO3)C2c2cccc(OC)c2)cc1 (stereo not drawn)	-5.9%	-6.8%
83	CCc1nnc(NC(=O)c2ccc(S(=O)(=O)N3CCN(Cc4ccccc4)CC3)cc2)s1	-5.5%	-0.5%
84	CC1CCCC(NC(=O)CSc2ncccn2)C1C (stereo not drawn)	-9.0%	-5.1%
85	CC(C)C1C(=O)N(Cc2cn(CCC3OCCCO3)nn2)CCS(=O)(=O)N1Cc1ccc(-c2ccc(F)nc2)cc1 (stereo not drawn)	-5.3%	i
86	O=C(CN1CCN(Cc2ccccc2)CC1)NCCc1ccccc1	-10.5%	i
87	O=C(NCCN1CCOCC1)c1ccc2c(c1)N(Cc1ccccc1F)C(=O)c1ccccc1S2	-0.5%	-14.4%
88	Cc1noc(C)c1S(=O)(=O)Nc1ccc2c(c1)C(=O)N([C@H](C)CO)C[C@H](C)[C@@H](CN(C)S(=O)(=O)c1ccccc1)O2	-8.7%	-1.2%
89	CCOc1ccc(CCNC(=O)c2ccc(-c3nc(CSc4ccc(C)cc4)c(C)o3)cc2)cc1	-3.4%	0.4%
90	Cc1cc(-c2ccc(C)c(S(=O)(=O)N3CCN(c4ccc(F)cc4)CC3)c2)on1	-11.1%	i
91	Cc1ccc(S(=O)(=O)NC(CC(=O)NCC2CCCO2)c2ccco2)cc1 (stereo not drawn)	-5.1%	-3.9%
92	COc1ccc(NC(=O)C2CCCN(C(=O)Nc3ccc(F)cc3)C2)cc1OC (stereo not drawn)	-9.4%	-12.5%

Structures above with a Cl atom:
no.	structure	VACV Venus inh	VACV mCherry inh
19	COCC1CCCN(C(=O)c2cc(COc3cncc(Cl)c3)on2)C1 (stereo not drawn)	-4.5%	-6.5%
24	C/C(=N\Nc1ccc(S(=O)(=O)Nc2ccc(Cl)cc2)cc1[N+](=O)[O-])c1ccc(N2CCOCC2)cc1	-20.2%	i
25	O=C(CBr)c1ccc([N+](=O)[O-])c(CS(=O)(=O)c2ccc(Cl)cc2)c1	-19.4%	-11.9%
28	O=C(CCCN1C(=O)c2cccnc2Oc2ccc(Cl)cc21)NCc1ccccc1F	-6.4%	-12.9%
29	Nc1nnn(CC(=O)N/N=C/c2cccc(Cl)c2)n1	-2.9%	-6.9%
30	O=[N+]([O-])c1cccnc1NCCNc1ncc(C(F)(F)F)cc1Cl	?	/
37	CC(=O)N1CCOc2cc(S(=O)(=O)NCc3ccc(C)cc3)c(Cl)cc21	-7.6%	-15.7%
42	O=C(CN(Cc1ccc(Cl)cc1)C(=O)CNS(=O)(=O)c1ccccc1)NCC1CCCO1 (stereo not drawn)	-14.2%	-13.9%
48	CC1CCCCC1NC(=O)CCC(=O)N1CCOc2ccc(Cl)cc21 (stereo not drawn)	-12.0%	?
54	COc1ccccc1NC(=O)Cn1nc(-c2ccc(Cl)cc2)c2ccccc2c1=O	-7.5%	-22.0%
63	COc1cccc(NC(=O)CN(C)C(C)C(=O)NC(C)c2ccc(Cl)cc2Cl)c1 (stereo not drawn)	-19.8%	-7.7%
66	Cc1onc(C(=O)NN)c1-c1csc(COc2ccc(Cl)cc2)n1	-7.0%	i
69	O=C(Cc1ccc(Br)cc1)Nc1ccccc1Cl	-7.0%	-9.7%
73	COc1cc(S(=O)(=O)NCCN2CCOCC2)c(OC)cc1Cl	-13.2%	-18.2%
76	O=C(Nc1nc2c(cc3c4c(cccc42)CC3)s1)c1ccccc1Cl	-12.2%	-8.9%
81	O=C(Oc1cccc(Nc2ncnc3ccccc23)c1)c1ccccc1Cl	?	?
